VACV mCherry inh – inhibitors of vaccinia virus infection (mCherry reporter signal); Vaccinia virus mCherry reporter infection, fluorescence; about a quarter of the inactives have no number; Potency, µM (doses to about 36.5 µM), for the others: at the top dose activity change, negative = inhibition, actives largely listed as inhibitors; 0.63% of 310,000 active; AID 720579; active = well fitted inhibition curve with a large enough effect; inconclusive = small, poorly fitted or top-dose-only effect; inactive = no such curve, though single readings can be large or run the other way; tested in A549 cells; also: nearly all actives have a fitted effect of over 35% in size; inactives centre near -10
Vaccinia Venus – vaccinia inhibition (Venus reporter); 0.46% of 330,000 active; AID 720580; Vaccinia virus Venus reporter expression, fluorescence; Potency, µM (series often up to 36.5 µM), for the others: at the highest dose activity change, negative = inhibition, hits mostly inhibitors; active means well fitted inhibition curve with a large enough effect; inconclusive means small, poorly fitted or top-dose-only effect; inactive means no such curve, though single readings can be large or run the other way; tested in A549 cells; also: nearly all actives have a fitted effect of over 30% in size; inactives centre near -10
* = called active by the depositor; i = inactive; ? = inconclusive; / = not tested or not shown; & = joins results of further samples; [ ] = another dose, or the depositor's remark. % is scaled to controls: 0 for no effect and ±100 for the full control effect; potency is read from the fitted curve at half-maximal effect.

Compound,Vaccinia Venus,VACV mCherry inh
N#CC(O[C@@H]1OC(COC2OC(CO)C(O)C(O)[C@@H]2O)C(O)C(O)C1O)c1ccccc1 (some centres not stated),-8.1%,-8.1%
c1ccc(Cc2ccc(OCCn3cncn3)cc2)cc1,-23.7%,-23.7%
Cc1ccc(C)c(OCC(=O)Nc2ccc(S(=O)(=O)N3CCN(C)CC3)cc2)c1,-8.9%,-15.6%
Cc1ccc(-c2csc3ncnc(-n4nnc5ccccc54)c23)cc1,-15.5%,-25.6%
COc1cc2c(cc1OC)-c1n[nH]c(=S)n1C(C)(C)C2,6.0%,-0.2%
CCOc1ccccc1C(=O)N1CCN(c2cccc(Cl)c2)CC1,?,?
CC1(C(=O)Nc2cnc3ccccc3c2)CCN1C(=O)C/C=C/c1ccccc1 (configuration not stated),-12.2%,i
CCOc1ccc(C(=O)N(Cc2nc(-c3cccc(C)c3)no2)C(C)C)cc1,-12.7%,i
CCC(=O)Nc1ccc2c(c1)ncn2-c1ccc(C)cc1,7.5%,-8.6%
CC(=O)c1cn(CC(=O)NCc2ccc3c(c2)OCO3)c2ccccc12,-18.5%,?
CCOC(=O)C1CCCN(C(=O)c2cc3c(Cl)nc4ccccc4c3s2)C1 (configuration not stated),-15.0%,-11.2%
CCN(CC)CCN(C(=O)c1ccc(S(=O)(=O)N2CCCC2)cc1)c1nc2cc(C)cc(C)c2s1,1.0%,-13.8%
CCCNC(=O)Cn1c(=O)/c(=C\c2ccc(-c3cccc([N+](=O)[O-])c3)o2)s/c1=C\C(=O)C(C)(C)C,-6.5%,-14.3%
Fc1ccc(-c2nnc(CN3CCN(c4ccccn4)CC3)o2)cc1,-11.5%,-11.2%
Cc1ccc(OCC(=O)N(Cc2ccco2)C2CCS(=O)(=O)C2)cc1 (configuration not stated),-11.2%&4.3%,-0.3%
Cc1cccc(C)c1NC(=O)C(C)NCc1cccs1 (configuration not stated),-12.5%,i
COc1ccc(-c2nc3c(s2)CCc2onc(-c4ccc(Br)cc4)c2-3)cc1,?,?
O=C(CCC(=O)Nc1ccc(F)cc1)N/N=C/c1ccncc1,0.9%,2.0%
CCc1nnc(NC(=O)C2(C)COC(c3ccccc3)OC2)s1 (configuration not stated),-10.1%,7.3%
O=C(CSc1ncccn1)Nc1cccc2ccccc12,-8.7%,?
CCOc1ccc(C(C)=O)cc1CN1C(=O)NC2(CCCCC2C)C1=O (configuration not stated),-10.3%,-8.3%
CCCNC(=O)N(C)C[C@@H]1Oc2ncc(Br)cc2C(=O)N([C@H](C)CO)C[C@@H]1C,-24.0%,i
CCOCCOC(=O)c1ccc(NC(=O)c2cc(OC)c(OC)c(OC)c2Br)cc1,-11.1%,-15.6%
CC1CCCC(NC(=O)COC(=O)c2ccc(S(=O)(=O)N3CCOCC3)cc2)C1C (configuration not stated),-10.1%,i
CCC(C)(C)NC(=O)/C=C/c1ccc(OC)c(S(=O)(=O)N2CCOCC2)c1,-6.9%,4.3%
O=C(COC(=O)CCCOc1ccccc1)NNC(=O)c1ccc([N+](=O)[O-])cc1,-2.5%,-7.0%
CCC(C(=O)N1CCOCC1)n1c(C(=O)OC)cc2occc21 (configuration not stated),-3.0%,-6.1%
COC(=O)Nc1ccc(S(=O)(=O)N(C)CC(F)(F)C(F)F)cc1,-7.5%,-13.2%
COCCNc1nc(NCCOc2ccccc2Cl)c2sccc2n1,-14.9%,?
CC(=O)Nc1ccc(S(=O)(=O)N2CCN(Cc3cccnc3)CC2)cc1,2.9%,-5.4%
Cc1ccn2cc(CNS(=O)(=O)c3ccc(Cl)s3)nc2c1,-17.6%,-7.0%
OCCNc1nc(NCc2ccccc2)c2ccccc2n1,-29.8%,-19.8%
Cc1cc(Cl)ccc1Oc1ncc(-c2ccc(Cl)cc2)cn1,-5.9%,-14.1%
O=C(Nc1cccc(C(=O)N2CCN(c3ccc(F)cc3)CC2)c1)c1ccccc1,-7.4%,i
CCOC(=O)c1c(NC(=O)/C=C/c2ccco2)sc(C)c1C,-14.4%,-13.5%
C=C(C)CSc1nc2c(c(=O)[nH]c(=O)n2C)n1Cc1ccccc1,?,?
CS(=O)(=O)N1CCN(c2ccc(Cl)cc2[N+](=O)[O-])CC1,-11.1%,-14.4%
COc1ccccc1NC(=O)C1CCCN(S(=O)(=O)c2cnc[nH]2)C1 (configuration not stated),-7.8%,i
Cc1cc(C)n(C(=O)Cn2nc(C)c(Cl)c2C)n1,-3.5%,-11.1%
Cc1ccc(/C=c2\sc3n(c2=O)CN(c2ccc(Br)cc2)CN=3)o1,-17.1%,-25.3%
CCNC(=S)N1C2CCC1CC(NC(=O)NC1CCCCC1)C2 (configuration not stated),-10.8%,-0.4%
O=C(COCc1cc(-c2ccco2)on1)Nc1cc(Cl)ccc1O,-17.4%,-0.9%
C[C@]12CCC(=O)C=C1CC[C@@H]1[C@@H]2[C@@H](O)C[C@@]2(C)[C@H]1CC[C@]2(O)C(=O)COC(=O)CCC(=O)O,-4.3%&-15.9%,-0.6%
Cc1ccc[n+](CC(O)Cn2c3ccccc3c3ccccc32)c1 (configuration not stated),-20.3%,-12.3%
c1ccc(OCCSc2nnnn2C2CCCCC2)cc1,-15.4%,/
CC(O)[C@H]1CC[C@H]2[C@@H]3CC[C@H]4C[C@@H](O)CC[C@]4(C)[C@H]3C(=O)C[C@]12C (some centres not stated),-8.7%,-2.6%
Clc1cnc(N/N=C/c2cccs2)c(Cl)c1,?,-10.3%[1.46 µM]
O=C(NCC(=O)N1CCCC(C(F)(F)F)C1)c1ccccc1Br (configuration not stated),-18.6%,i
CCOC(=O)c1ccc2nc(C)c(C)nc2c1,-4.3%[7.34 µM],i[7.34 µM]
O=C1c2cccc(Sc3ccccc3)c2C(=O)c2c(Sc3ccccc3)cccc21,-8.2%[7.34 µM],-10.6%[7.34 µM]

Brought forward from above: 2 compounds; new compounds follow.
Compound,Vaccinia Venus,VACV mCherry inh
CCOC(=O)c1ccc2nc(C)c(C)nc2c1,-4.3%[7.34 µM],i[7.34 µM]
O=C1c2cccc(Sc3ccccc3)c2C(=O)c2c(Sc3ccccc3)cccc21,-8.2%[7.34 µM],-10.6%[7.34 µM]
CC(=O)Nc1ccc(S(=O)(=O)NNC(=O)COc2cc(C)ccc2C(C)C)cc1,-4.4%,/
CC(C)(C)C(=O)O/N=C(\N)c1ccc(Br)cc1,-12.4%[7.34 µM],-3.4%[7.34 µM]
CCC(CC)NC(=O)CSc1nnc(-c2ccc(OC)cc2)n1C(C)C,-10.9%,-16.1%
O=C(Nc1ccc2c(c1)OCCO2)C(C1CC1)n1c(=O)c(-c2ccco2)nc2ccccc21 (configuration not stated),-4.6%,-27.8%
O=C(O)C(Cc1ccccc1)NS(=O)(=O)c1ccc2c(c1)OCCO2 (configuration not stated),-6.0%,-19.3%
O=c1[nH]cc(O)c(=O)[nH]1,1.6%,-2.6%
O=C1CC(c2ccc(O)cc2)Oc2cc(O)ccc21 (configuration not stated),-7.0%,i
CC(=O)Nc1ccc(C(=O)NNC(=O)c2cc([N+](=O)[O-])cc([N+](=O)[O-])c2)cc1,-5.8%,-0.7%
COCOCCn1cc(CN2CCS(=O)(=O)N(Cc3ccc(-c4cccc(CO)c4)cc3)C(C)C2=O)nn1 (configuration not stated),-2.0%,-12.9%
COc1ccc(/C=C/C(=O)c2cc(Cl)ccc2O)c(OC)c1,-2.0%,-5.9%
O=S(=O)(Nc1ccccc1N1CCOCC1)c1ccc(F)c(Cl)c1,?,?
CCCCC[C@H](C)N1C[C@@H](COCc2ccccc2)Oc2cc(N3CCC[C@@H]3CO)ccc2S1(=O)=O,-28.4%,5.5%
OCc1cn(-c2ccccc2)nn1,-2.2%,-6.7%
Cc1noc(C)c1COc1ccccc1C(=O)N(C)Cc1ccco1,-2.3%,-11.2%
COc1ccc(/C(N)=N/OC(=O)c2c(-c3ccccc3Cl)noc2C)cc1OC,?,-11.4%
Cc1ccccc1NC(=O)Nc1nc(C(N)c2ccccc2)cs1 (configuration not stated),-26.9%,-12.9%
CC(=O)Nc1ccc(C(=O)CSc2cc(C)c3cccc(C)c3n2)cc1,-18.2%,-2.5%
COc1ccc(OCc2nnc(SCC(=O)NC3CCCCC3)o2)cc1,-6.7%,-9.8%
CCOc1cccc(/C=N/NC(=O)C2CCCC2)c1O,-9.4%,?
O=C(COC(=O)C12CC3CC(CC(C3)C1)C2)Nc1ccc([N+](=O)[O-])cc1Cl,-16.7%,-19.0%
O=C(CCC(=O)N(CC(=O)NC1CCCCC1)Cc1cccs1)Nc1ccccn1,-9.0%,-0.4%
Cc1ccccc1S(=O)(=O)NC1=NCCCCC1,-5.1%,-14.4%
CCC(=O)N1c2ccc(S(=O)(=O)CCC(=O)NC3CCCC3)cc2CC1C (configuration not stated),-2.4%,-10.5%
C1=C(c2ccccc2)Nc2ncnn2C1c1ccccc1 (configuration not stated),-11.5%,10.5%
COc1cc(OC)cc(-c2nnc(NC(=O)CCS(=O)(=O)c3ccccc3)o2)c1,?,6.31µM*
Nc1c(Br)cc2c(c1Br)C(O)c1ccccc1-2 (configuration not stated),-21.7%,?
Cc1cccc(C)c1N1CC(c2nc3ccccc3n2CC(=O)OC(C)C)CC1=O (configuration not stated),-0.3%,-16.5%
O=C(O)Cc1ccc(-c2ccccc2-c2ccccc2)cc1,-8.2%,/
CN1N=C(C(=O)N=c2sc3ccccc3n2C)CCC1=O,-4.6%,-0.6%
COC(=O)c1c(NC(=O)COC(=O)Cn2cnc3ccccc32)sc2c1CCCC2,-9.8%,-18.1%
CCC(C)C(=O)Nc1nc(C)c(-c2csc(Nc3cc(OC)ccc3OC)n2)s1 (configuration not stated),?,?
COc1cccc(CNS(=O)(=O)c2ccc(-n3cnnn3)c(C)c2)c1,-11.5%,-19.2%
CCc1ccc(NC2CC(=O)N(c3ccc(OC)cc3OC)C2=O)cc1 (configuration not stated),10.5%,-13.4%
CC(=O)c1sc(NC(=O)C(C)C)nc1C,-7.4%,-13.2%
O=C1CC(NNc2ccccc2)C(=O)N1c1ccccc1 (configuration not stated),-15.1%,-3.4%
Cc1ccc(NC2OC(CO)C(O)C(O)C2O)cc1 (configuration not stated),-6.4%,-11.1%
O=C(CN(c1ccccc1F)S(=O)(=O)c1ccccc1)Nc1ccc2c(c1)OCCO2,-8.9%,i
c1ccc(Cn2c(CSc3nnnn3-c3ccccc3)nc3ccccc32)cc1,-0.4%,-13.5%
CCc1ccccc1N1CC23C=CC(O2)C(C(=O)OCC(C)C)C3C1=O (configuration not stated),5.5%,-1.1%
O=C1CC(N2CCN(c3ccc(F)cc3)CC2)C(=O)N1Cc1cccs1 (configuration not stated),-14.9%,/
O=C(CSc1ccc2ccccc2c1Br)Nc1cccc(S(=O)(=O)NC2=NCCCCC2)c1,10µM*,?
Nc1ccccc1C(=O)NN=Cc1cccc([N+](=O)[O-])c1,12.0%,30.5%[activator]
C=C(C)C1CCC2(C(=O)O)CCC3(C)C(CCC4C5(C)C(C=O)C(O)C(C)(C)C5CCC43C)C12 (configuration not stated),?,?
CSc1nc(N)nc2c1ncn2CC(=O)N[C@H](C)c1cccc2ccccc12,-3.2%,10.5%
COc1ccc(OC)c(/C=c2\sc3nc(-c4cccs4)nn3c2=O)c1,-2.5%,-7.8%
Cc1cc(C)n2nc(SCC(=O)N/N=C/c3ccccn3)nc2n1,-3.9%,-14.7%
CCc1ccc(C(=O)OCC(=O)NCCNC(=O)COC(=O)c2ccc(CC)cc2)cc1,-5.1%,i
CCOCc1nnc(NC(C)=O)s1,-10.5%,-19.4%
COc1cccc(OC)c1OC(=O)c1cnccn1,-7.4%,-1.9%
Cc1ccc(C2=NC(c3ccc(F)cc3)=Nc3ccc(C)cc3N2)cc1,4.9%,-5.6%

Following part.
Compound,Vaccinia Venus,VACV mCherry inh
Cc1cccn2c(=O)nc(SCC(=O)NCc3ccc4c(c3)OCO4)nc12,-9.1%,-17.6%
COCC(C)NS(=O)(=O)c1ccc(NC(=O)C(Cc2ccccc2)NC(N)=O)cc1 (configuration not stated),-1.6%,-1.9%
COc1ccc(NC(=O)COCc2cc(-c3ccc4c(c3)OCO4)on2)cc1,-6.3%,-5.4%
COc1ccc(NC(=O)CSc2oc(-c3ccc(C)cc3)nc2S(=O)(=O)c2ccc(C)cc2)c(OC)c1,-18.4%,-16.8%
CN(C)c1ccc2c(=O)[nH][nH]c(=O)c2c1,1.0%,-4.0%
COc1ccc2c(c1)OC(C)CN(CCNC(=O)c1cc3cc(F)ccc3[nH]1)C2 (configuration not stated),-10.1%,-13.2%
COc1ccc(-c2nnc(SCCOc3ccccc3C)o2)cc1OC,-9.3%,-21.9%
COC(CNC(=O)c1ccc2nc3ccccc3c(=O)n2c1)OC,-3.5%,-8.0%
O=C(NNC(=O)c1cccnc1SCc1cccc([N+](=O)[O-])c1)c1cccnc1,12.3%,-7.2%
COc1ccc(OC)c(NC(=O)c2cccc(Cn3cc(Br)c([N+](=O)[O-])n3)c2)c1,?,-26.0%
Cc1ccc(-n2[nH]c(C)c(CCC#N)c2=O)cc1,-15.7%,-14.3%
Nc1c(Cl)cc(C2=NCCn3c2c2ccc([N+](=O)[O-])cc2[n+]3[O-])cc1Cl,?,?

Source: PubChem BioAssay
